Compound activity deposited in PubChem BioAssay by National Center for Advancing Translational Sciences (NCATS).
Cruzain inh Det: blocks cruzain activity in presence of Triton detergent; purified cruzain, Z-FR-AMC fluorescence, 0.01% Triton; 0.43% of 200,000 active; Potency, µM, inactives show max response, negative = inhibition, actives largely listed as inhibitors;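 also: plate controls were neutral wells for no effect and buffer without enzyme for full effect; nearly all actives have a fitted effect of over 40% in size; top concentration of the series not given in the record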
Target sequence (P25779 123-467 limits assumed): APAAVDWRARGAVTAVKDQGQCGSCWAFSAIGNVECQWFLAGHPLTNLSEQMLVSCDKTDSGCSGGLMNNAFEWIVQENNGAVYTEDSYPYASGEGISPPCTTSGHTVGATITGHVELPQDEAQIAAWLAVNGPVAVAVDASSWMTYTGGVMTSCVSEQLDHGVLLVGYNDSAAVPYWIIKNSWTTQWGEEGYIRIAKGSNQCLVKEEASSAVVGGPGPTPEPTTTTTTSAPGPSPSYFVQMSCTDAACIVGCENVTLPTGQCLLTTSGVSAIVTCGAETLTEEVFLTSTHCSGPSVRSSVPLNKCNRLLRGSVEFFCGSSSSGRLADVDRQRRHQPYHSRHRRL
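Detergent-containing run (0.01% Triton X-100) in acetate buffer pH 5.5 with 5 mM DTT: enzyme at 1.5 nM final, 15 min compound preincubation at room temperature, then 2 uM Z-FR-AMC substrate. Activity taken as 60 s fluorescence increase at 360/450 nm.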
RE007 growth inh: less growth of the S. pombe RE007 Vpr strain; AID 651644; Potency, µM (titrated, usually from 92.2 µM), without a hit: at the top dose activity change, negative = less growth; S. pombe RE007 Vpr strain, BacTiter-Glo ATP luminescence, 24 h; control for the full effect not named in the record; 0.21% of 360,000 active; active = well fitted falling curve with a large enough effect; inconclusive = small, poorly fitted or top-dose-only effect; inactive = no such curve, though single readings can be large or run the other way;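 also: % is scaled to controls: 0 for no effect and ±100 for the full control effect; nearly all actives have a fitted effect of over 50% in size; the assay follows cell death caused by Vpr and the record does not say whether a fall means rescue or toxicity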
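Fission yeast strain RE007, carrying one chromosomally integrated HIV-1 vpr copy, was seeded at OD 0.01 in PMG+AL medium with 23 nL pinned compound. After 24 h at 30 °C and 99% humidity, viability was read by BacTiter-Glo luminescence.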
Lassa entry inh: blocks Lassa virus binding to or entry into cells | Lassa virus pseudotype entry inhibition, cell reporter; control for the full effect not named in the record | Potency, µM (top dose mostly 37.9 µM), for the others: at the highest dose activity change, negative = inhibition, actives largely listed as inhibitors | 1.2% of 300,000 active | AID 540256; active means well fitted inhibition curve with a large enough effect; inconclusive means small, poorly fitted or top-dose-only effect, or effect the other way; inactive means flat fitted curve, though single readings scatter; tested in HEK293 cells; also: % is scaled to controls: 0 for no effect and ±100 for the full control effect; nearly all actives have a fitted effect of over 50% in size; luciferase read-out
NS1 inh: influenza NS1 inhibition. S. cerevisiae slowed by influenza A NS1, growth recovery by OD600. Potency, µM (series often up to 46.1 µM), for inactives: at the top dose activity, positive = more growth. 0.4% of 270,000 active; active means well fitted rising curve with a large enough effect; inconclusive means small, poorly fitted or top-dose-only effect; inactive means no such curve, though single readings can be large or run the other way; also: nearly all actives have a fitted effect of over 50% in size
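Compounds were scored for reversing the slow growth caused by influenza A NS1 in S. cerevisiae, measured by optical density at 600 nm. Assay medium contained 2% galactose at pH 6.0; NS1-free yeast of the same strain were the positive control.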
StopGo reporter: FMDV 2A StopGo reporter, luciferase signal | human cells with a luciferase reporter of 2A StopGo recoding; control for the full effect not named in the record | Potency, µM (titrated, usually from 57.9 µM), for the others: top-dose signal change, negative = less light | 1.2% of 410,000 active; active = well fitted falling curve with a large enough effect; inconclusive = small, poorly fitted or top-dose-only effect; inactive = no such curve, though single readings can be large or run the other way; tested in HEK293T cells; also: % is scaled to controls: 0 for no effect and ±100 for the full control effect; nearly all actives have a fitted effect of over 45% in size; luciferase light after 4 h
SARS PLP yeast: inhibitors of SARS-CoV papain-like protease in yeast | 0.19% of 330,000 active | S. cerevisiae expressing SARS-CoV PLpro, growth rescue; control for the full effect not named in the record | Potency, µM (highest dose often 32.9 µM), without a hit: at the top dose activity, positive = growth rescue; active means well fitted rising curve with a large enough effect; inconclusive means small, poorly fitted or top-dose-only effect; inactive means no such curve, though single readings can be large or run the other way; also: 0% is about no effect; nearly all actives have a fitted effect of over 55% in size; growth read by luminescence after 48 h
Cruzain inh noDet: blocks cruzain activity in detergent-free assay; P25779; purified cruzain, Z-FR-AMC fluorescence, no detergent; Potency, µM, without a hit: max response, negative = inhibition, hits mostly inhibitors; 2.3% of 200,000 active; AID 1476;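 also: plate controls were enzyme without inhibitor for no effect and buffer without enzyme for full effect; nearly all actives have a fitted effect of over 40% in size; top concentration of the series not given in the record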
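Purified cruzain at 1.5 nM, pre-incubated 15 min with compound at room temperature in 100 mM sodium acetate pH 5.5, 5 mM DTT, 0.00005% Triton X-100. Reaction started with 2 uM Z-FR-AMC; AMC fluorescence increase over 60 s gives rate.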
Marburg entry inh: blocks Marburg virus binding to or entry into cells. Potency, µM (series often up to 37.8 µM), without a hit: top-dose activity change, negative = inhibition, hits mostly inhibitors. 1.8% of 300,000 active. Marburg virus pseudotyped entry inhibition, cell reporter; control for the full effect not named in the record; about a third of the inactives were read at about 46 µM; active = well fitted inhibition curve with a large enough effect; inconclusive = small, poorly fitted or top-dose-only effect, or effect the other way; inactive = flat fitted curve, though single readings scatter; tested in HEK293 cells; about a fifth of its hits are not listed in these tables; also: % is scaled to controls: 0 for no effect and ±100 for the full control effect; luciferase read-out
* hit, by the source's call; ? = inconclusive; nt = no result given; & = joins results of further samples; [ ] = dose if it differs, or a comment. Unless noted, calls follow the shape of the dose curve; as a rule, active = well fitted curve in the direction sought with a large enough effect; inconclusive = small, poorly fitted or top-dose-only effect, or another doubt; inactive = no such curve, though single readings can be large; an effect the other way counts as inactive or inconclusive. Potency is read from the fitted curve at half-maximal effect.

SMILES	Cruzain inh Det	RE007 growth inh	Lassa entry inh	NS1 inh	StopGo reporter	SARS PLP yeast	Cruzain inh noDet	Marburg entry inh
CCN(c1ccccc1C)S(=O)(=O)c1nnc(NC(=O)c2ccco2)s1	-1.4%	-9%	1%[46.1 µM]	-17%	-5%&19%	-6%	-3%	nt
CCCCC1CC(CSC(=N)N)OC1=O (stereo unspecified)	1.1%	-11%	-20%	2%	0%	-2%	2%	-8%
N#CC1=CC2CN(Cc3ccccc3)C1C1C(=O)N(c3ccccc3)C(=O)C21 (stereo unspecified)	nt	-3%	10%	nt	-12%	nt	nt	16%
Cn1c(-c2sccc2OCc2ccc(Cl)cc2Cl)n[nH]c1=S	nt	18%	-7%	nt	-27%	2%	nt	7%[46.1 µM]
Cc1ccc(NC(=O)CSC2=C(C#N)C(c3ccc4c(c3)OCO4)CC(=O)N2)cc1C (stereo unspecified)	-3.6%	9%	4%	14%	-29%	-4%	12%	-6%
CCC(=O)N(CCC(Cc1ccccc1)c1ccco1)Cc1ccco1 (stereo unspecified)	nt	3%	?	-5%	?	0%	nt	?
CC1CCCC(C)N1CCCNC(=O)CN1C(=O)c2cccnc2Oc2ccc(Cl)cc21 (stereo unspecified)	nt	-3%	nt	-5%	-4%	9%	nt	nt
CCn1c(SCC(=O)Nc2cc(Cl)ccc2OC)nnc1C1CC1	nt	-1%	-28%	5%	-1%	0%	nt	0%[46.1 µM]
CCCn1c(N2CCN(S(=O)(=O)Cc3ccccc3)CC2)nc2ccccc21	0.1%	4%	-23%	-8%	?	-4%	3%	?
NC(=O)c1cc(N2C(=O)C3CC=CCC3C2=O)ccc1N1CCCCC1 (stereo unspecified)	-1.5%	-5%	0%	-3%	10%	9%	-5%	13%
Clc1ccc(-c2csc(-c3ccno3)n2)cc1	nt	7%	18%	4%	39%[activator]	0%	nt	-1%[46.1 µM]
Cc1cccc(N/N=C(\C(N)=O)C2=NC(C)(C)Cc3ccccc32)c1	-13%	5%	6.3µM*	-54%	25µM*	-48%	-6%	?
Cc1cccc(NC(=O)CSCC(=O)Nc2sccc2C#N)c1	nt	-4%	9%	nt	5%	2%	nt	1%
O=C(Cc1ccc(Cl)c(Cl)c1)N1CCOCC1	nt	11%	?	5%	1%	5%	nt	6%[46.1 µM]
CN1CCN(CCOc2ccc(Cc3ccccc3)cc2)CC1	nt	-4%	20%[46.1 µM]	-6%	0%	-3%	nt	?
CC(C)C(NC(=O)c1ccco1)C(=O)OCC(=O)N1CC(=O)Nc2ccccc21 (stereo unspecified)	nt	7%	14%	nt	6%	3%	nt	-30%
Cc1noc(NS(=O)(=O)c2ccc(NC(=O)c3nn(-c4ccccc4)ccc3=O)cc2)c1C	nt	1%	nt	-23%	-24%	3%	nt	nt
CCOc1ccc(NC(=O)CCn2ccnc2)cc1	nt	-20%	3%[46.1 µM]	-2%	2%	1%	nt	-3%[46.1 µM]
O=C(N/N=C/c1cc([N+](=O)[O-])ccc1O)c1cccc2cc[nH]c12	nt	-7%	nt	-30%	-33%	5%	nt	nt
Cc1cc(C(=O)Nc2ccc(C(=O)O)cc2)c(-c2ccccc2)o1	3.9%	-3%	7%	-118%	-11%	-3%	3%	0%
CC(=O)c1c(C)[nH]c(C(=O)COC(=O)CN2C(=O)C3CCCCC3C2=O)c1C (stereo unspecified)	nt	-17%	0%	nt	-29%	1%	nt	0%
Nc1ccc(S(=O)(=O)N2CCc3ccccc32)cc1	nt	-4%	20%	15%	3%	0%	nt	?
CCOc1ccc(-c2cccc(NS(=O)(=O)c3ccc(Cl)s3)c2)nn1	-6.0%	nt	4%[46.1 µM]	nt	42%[activator]	nt	-8%	nt
Cn1nc(-c2ccccc2)cc1NC(=O)Nc1ccc(C(C)(C)C)cc1	nt	-11%	nt	-8%	5%	-8%	nt	nt
Cc1ccc(NC(=O)CCCCCCCCCCC2COCCO2)c(C)c1 (stereo unspecified)	1.1%	-27%	6%	-5%	?	?	-10%	?
COc1ccccc1NC(=O)C(C)OC(=O)COc1cccc2c1OC(C)(C)C2 (stereo unspecified)	nt	-11%	0%	nt	16%	-3%	nt	?
CC(C)(C)NC(=O)CN(C(=O)CS(=O)CC(=O)Nc1ccc(F)cc1)c1ccccc1F (stereo unspecified)	nt	-9%	-17%[46.1 µM]	0%	28%	1%	nt	?
COCCn1c(C2CCCCC2)nc2sc3ccccc3c(=O)c2c1=O	0.4%	-11%	1%	-34%	11%	17%	0%	5%
Cc1ccc(S(=O)(=O)N2CCN(c3ccc(C(F)(F)F)cc3[N+](=O)[O-])CC2)cc1	-6.0%	7%	?	?	?	-27%	-14%	8.9µM*
CC(C)[C@H](NS(=O)(=O)c1ccc2c(c1)OCCO2)C(=O)OCC(=O)Nc1ccccc1	-5.9%	-3%	?	-17%	24%	1%	11%	17%
Oc1ccc(C2NCc3ccccc3-n3cccc32)cc1Cl (stereo unspecified)	-12%	-7%&12%	13%	-16%	0%&-4%	-7%&1%	-22%	?
CCN(CC)c1ccc(C(=O)Nc2cccc(F)c2)cc1	-7.5%	?	?	-119%	-16%	-7%	-11%	?
CCCCOC(=O)C1=C(C)Nc2nnnn2C1c1ccccc1Cl (stereo unspecified)	-6.1%	14%	2%	-10%	?	28%	0%	?
c1cncc(-c2noc(-c3ccco3)n2)c1	1.5%	-9%	16%	-13%	81%[activator]	25%	7%	3%
O=C(Cc1ccccc1)NN=C1CCCC1	nt	-5%	8%[46.1 µM]	nt	-2%	nt	nt	-14%[46.1 µM]
COc1ccc(OC)c(CN(CCCN2CCOCC2)C(=O)Nc2ccccc2)c1	1.2%	-10%	?	11%	20%	14%	-5%	29%
CCCCC(CC)C(=O)Nc1ncc([N+](=O)[O-])s1 (stereo unspecified)	nt	-17%	?	6%	?	0%	nt	?
CNC(=O)N(O)C1N(/N=C/c2ccccc2OC)C(=S)SC1(C)C (stereo unspecified)	nt	1%	3%	2%	0%	0%	nt	11%
O=C(CN1C(=O)C2(SCC(=O)N2c2ccc(Cl)cc2)c2ccccc21)NCCc1ccccc1 (stereo unspecified)	-3.3%	nt	-19%[46.1 µM]	nt	4%	nt	1%	nt
COC(=O)Oc1ccc(/C=N/NC(=O)CSCc2ccc(Cl)cc2)cc1OC	-5.4%	-11%	?	-18%	?	-9%	2%	-39%
O=C1N/C(=C\c2ccccc2)C(O)=C1C=NCc1ccccc1	-1.6%	8%	8%	10%	44%[activator]	10%	-8%	?
CCOc1cccc2sc(N(CCCN(C)C)C(=O)c3ccc(S(=O)(=O)N(CC)Cc4ccccc4)cc3)nc12	nt	9%	?	?	-25%	-1%	nt	?
Fc1ccc(F)c(C2=NNC(=NCC3CCCO3)SC2)c1 (stereo unspecified)	nt	-3%	nt	3%	43%[activator]	5%	nt	nt
O=C(C1CCC(=O)N1C1CCCCC1)N1CCC2(CC1)OCCO2 (stereo unspecified)	5.3%	-5%	15%	0%	-15%	7%	-10%	2%
O=S(=O)(c1ccc2nc(NCc3ccccc3Cl)ccc2c1)N1CCCCC1	-1.7%	nt	-19%[46.1 µM]	nt	-14%	nt	?	nt
COc1cc(NC(=O)c2ccc(-c3nc(COc4ccccc4)c(C)o3)cc2)cc(OC)c1	-3.6%	nt	?	nt	0%	nt	-19%	nt
CCOC(=O)Cn1nc(-c2ccc(C)cc2)ccc1=O	-3.2%	0%	2%	-5%	32%[activator]	-3%	5%	15%
O=C(NCc1ccccc1)C1CCC(CNS(=O)(=O)c2ccc(Br)s2)CC1 (stereo unspecified)	-4.5%	nt	6%[46.1 µM]	nt	-7%	nt	-2%	-1%[46.1 µM]
CC(=O)Nc1ccc(S(=O)(=O)NC(CSc2ccc(C(=O)O)cc2[N+](=O)[O-])C(=O)O)cc1 (stereo unspecified)	nt	7%	nt	5%	-12%	2%	nt	nt
c1nc2sc3c(c2c2nnnn12)CCCC3	2.4%	13%	25%	-31%	-9%	-6%	-6%	20%
Cc1ccc(C2C(=O)N(C3CCCC3)CC(=O)N2C2CCCCC2)cc1 (stereo unspecified)	-4.0%	1%	?	-5%	-28%	-2%	1%	1%
Cc1ccc(NC(=O)CN(C)CC(=O)Nc2ccc(F)c(F)c2F)c(Cl)c1	nt	-8%	-12%	nt	7%	-4%	nt	6%[46.1 µM]
O=C(c1ccc(S(=O)(=O)N2CCOCC2)cc1)N1CCN(c2ccccc2)CC1	5.0%	12%	7%	-21%	24%	-4%	13%	18%
CCn1c(C)c(/C=N/Nc2nc3ccccc3s2)c2ccccc21	-0.8%	-10%	?	9%	28%	0%	13µM*	?
Cc1ccc(S(=O)(=O)N2CCCCC2)cc1C(=O)Nc1ccc(N2CCOCC2)cc1	-4.6%	6%	0%	5%	-21%	4%	-1%	-5%
C=CCn1c(=O)c(C(=O)Nc2ccccc2O)c(O)c2ccccc21	7.1%	-30%	?	4%	7%	-5%	-1%	2%
O=C(COc1ccccc1[N+](=O)[O-])OCC(=O)N1CCC(Cc2ccccc2)CC1	0.7%	5%	13%	-69%	-13%	4%	7%	?
CC[n+]1c(/C=C/C=C/N(C(C)=O)c2ccccc2)sc2ccccc21	-3.6%	-9%	-28%	?	?	-1%	20µM*	?
COc1ccc(CNC(=O)C(=O)NCC(c2cccs2)S(=O)(=O)c2ccc(C)cc2)cc1 (stereo unspecified)	-0.4%	nt	-25%[46.1 µM]	nt	?	nt	-1%	nt
O=C(CC1C(=O)NCCN1C(=S)Nc1ccccc1)Nc1ccc(F)cc1 (stereo unspecified)	-0.9%	-11%	19%	-1%	-4%	13%	12%	-6%
CC1(c2cccc(Br)c2)NC(=O)N(CC(=O)Nc2ccc(F)cc2)C1=O (stereo unspecified)	nt	-3%	?	8%	19%	3%	nt	?
